nsP2pro primary = Primary qHTS for inhibitors of NSP2Pro chikungunya virus (CHIKV) | FRET peptide cleavage, nsP2pro, fluorescence 1 h | Polyprotein P1234 (Chikungunya virus (strain S27-African prototype)), Q8JUX6 | hit rate 1.1% among 31,000 | Potency, µM (top dose mostly 24.9 µM), without a hit: at the highest dose activity change, negative = inhibition, usual class: inhibitors; active means well fitted inhibition curve with a large enough effect; inconclusive means small, poorly fitted or top-dose-only effect; inactive means no such curve, though single readings can be large or run the other way; further: nearly all actives have a fitted effect of over 60% in size; a reference inhibitor and vehicle were the controls
Numbers without * were called inactive; i = inactive; ? = inconclusive; & = joins results of further samples; [ ] = remark or other dose. On the % scale 0 is the no-effect control and ±100 the full control effect; potency means the concentration at half of the fitted maximal effect. These rows are one share of the data. The share of hits here may be higher or lower than overall.

no.	structure	nsP2pro primary
1	CC(=O)N[C@@H](Cc1ccc(O)cc1)C(=O)N[C@H](C(=O)N[C@@H](C)C(=O)N[C@H](C#N)CC(=O)O)C(C)C	3%
2	Cc1cc(C)c(S(=O)(=O)Nc2ccc3oc4c(c3c2)C(=O)CC(C)(C)C4)cc1C	-7%
3	CCCCC(CC)COC(=O)CC(C(=O)OCC(CC)CCCC)S(=O)(=O)O (stereo not drawn)	31%&-9%[activator]
4	C=C1CC[C@@H]2[C@](C)(CO)[C@H](O)CC[C@@]2(C)[C@@H]1CC(=O)C1=CCOC1=O	2%
5	COc1ccc(OCC2c3cc(OC)c(OC)cc3CCN2C(=O)c2c(F)cccc2F)cc1 (stereo not drawn)	?
6	O=C(Cn1c(=O)oc2cc(S(=O)(=O)NCc3ccccc3)ccc21)Nc1cccc(F)c1	-8%
7	[N-]=[N+]=N[C@]1(CO)O[C@@H](n2ccc(N)nc2=O)[C@@H](O)[C@@H]1O	-12%
8	Cc1ccc2nc(NC(=O)CSc3nc4c(c(=O)n3-c3ccccc3)SCC4)sc2c1	-13%
9	CCOc1ccccc1CN1CCN(Cc2nccn2CC)CC1CCO (stereo not drawn)	3%
10	COc1cccc(Nc2sc(C(=O)c3ccc(F)cc3)c(N)c2C(=O)NCc2ccc(Cl)cc2)c1	-26%
11	CN1CCc2sc(NC(=O)Cc3ccccc3)c(C(=O)Nc3ccc(Cl)cc3)c2C1	-2%
12	CCc1cccc(NC(=O)CNS(=O)(=O)c2ccc3nc(C)sc3c2)c1	-13%
13	COc1cccc(NC(=O)Cn2c(=O)n(CCCC(=O)NCc3ccc4c(c3)OCO4)c(=O)c3ccccc32)c1	-12%
14	CC1=C2C3OC(=O)C(C)C3(O)CCC2(C)CCC1 (stereo not drawn)	-7%
15	O=C1CC2CCCC(C1)N2C(=O)c1cc(F)ccc1Br	2%[39.2 µM]
16	COc1cc2c(cc1NC(C)=O)C(c1ccc(Oc3ccccc3)nc1)CC(=O)N2 (stereo not drawn)	4%
17	COc1cc(C)ccc1OCCSc1nc2ccc(NC(=O)c3ccccc3F)cc2s1	-17%
18	COc1ccc(-c2noc(CCC(=O)NCc3ccc(C)cc3)n2)cc1	-19%
19	CN(C)CC1(O)CCC2(CCN(C(=O)C3CCCC3)CC2)CC1	i
20	CC(C)(CO)C(O)C(=O)NCCCC(=O)O (stereo not drawn)	-17%
21	O=C(Nc1ncc(Cc2ccc(C(F)(F)F)cc2)s1)c1ccc(-c2ccccc2[N+](=O)[O-])o1	?
22	Cc1c(C(=O)OCC2CCCC2)[nH]c2c1C(=O)CC(c1ccco1)C2 (stereo not drawn)	4µM*
23	Cc1ccc2nc(Cl)c3cc(C(=O)NCCCN(C)Cc4ccccc4)sc3c2c1	34%[activator]
24	O=C(c1ccco1)N1CCC(N2CC3(CCCC3)C2c2ccccc2)CC1 (stereo not drawn)	?
25	O=C(Nc1cccc(Cc2ccccc2)n1)c1ccc(-c2cccc([N+](=O)[O-])c2)o1	10µM*
26	COc1ccc(N2CC(C(=O)NCc3nnnn3-c3ccc(C)c(C)c3)CC2=O)cc1 (stereo not drawn)	-7%
27	C/C=C/C=C/C(CC(=O)O)Nc1ccc(C=O)cc1 (stereo not drawn)	49%[activator]
28	CCn1c(C)c(C)c2cc(C(=O)N3CCN(c4cccc(C)c4C)CC3)ccc21	-28%
29	Cc1ccc(C)c(NC(=O)Nc2nnc(N(CC(C)C)CC(C)C)s2)c1	-12%
30	O=C1NCCN1C1CCN(Cc2cccnc2)CC1	-8%[39.2 µM]
31	COc1ccc2c(c1)OC[C@]1(O)c3cc4c(cc3O[C@H]21)OCO4	26%
32	CC(C)(O)c1cc2nc(-c3cnc(N)nc3)nc(N3CCOCC3)c2s1	43%[activator]
33	CC(C)Oc1ccc(CNC(=O)c2ccc3c(c2)nc2n3CCCCC2)cc1	4%
34	CCOc1cc(OCC)c(C(=O)CCC(=O)O)cc1OCC	-3%
35	CO[C@@]1(NC(=O)CSCC#N)C(=O)N2C(C(=O)O)=C(CSc3nnnn3C)CS[C@@H]21	?
36	CC(C)c1nc(CN(C)C(=O)N[C@H](C(=O)N[C@@H](Cc2ccccc2)C[C@H](O)[C@H](Cc2ccccc2)NC(=O)OCc2cncs2)C(C)C)cs1	?
37	O=C(O)[C@H](O)[C@@H](O)[C@H](O)[C@H](O)CO	-7%
38	CCOc1ccc(-c2oc3ccc(C)cc3c(=O)c2O)cc1	-29%
39	CCCc1oc2ccc(NS(=O)(=O)c3ccc(OC)cc3)cc2c1C(=O)OCC	-6%
40	CCc1nc2ccc(C(=O)NCc3ccccc3C)cc2nc1CC	-21%

Some values from the list.
no. 20 in nsP2pro primary has -17%
no. 12 in nsP2pro primary has -13%
no. 18 in nsP2pro primary has -19%
no. 3 in nsP2pro primary has 31%&-9%[activator]
no. 29 in nsP2pro primary has -12%

The list continues.
no.	structure	nsP2pro primary
41	COc1ccc(-n2c(=O)c3c4c(sc3n3c(SC(C)C)nnc23)COC(C(C)C)C4)cc1 (stereo not drawn)	-20%
42	CC(N=C(NC#N)Nc1ccncc1)C(C)(C)C (stereo not drawn)	-1%
43	O=C(N[C@@H](COc1ccc2[nH]c(=O)[nH]c2c1)c1ccccc1)c1cccn(Cc2ccc(F)c(F)c2)c1=O	0%
44	C[C@@H](O)[C@H]1C(=O)N2C(C(=O)O)=C(S[C@@H]3CN[C@H](CNS(N)(=O)=O)C3)[C@H](C)[C@H]12	?
45	O=C(COCc1cc(-c2cccs2)on1)Nc1cc(C(F)(F)F)ccc1Cl	-24%
46	COc1cccc(-c2ccc(C(=O)NCCNC(=O)Cc3ccc(F)cc3)cc2)c1	i
47	CCOC(=O)N1CCc2c(sc(NCc3cccc(F)c3)c2C(=O)Nc2ccccc2OCC)C1	?
48	NC(=O)c1cccc(-c2noc(-c3ccccc3F)n2)c1	1%
49	COc1ccccc1CCC(=O)N1CCCC(c2[nH]ccc2C(N)=O)C1 (stereo not drawn)	-2%
50	CCOc1ccc(C2CC(=O)NC(NC(=O)c3cccc(Cl)c3)=N2)cc1 (stereo not drawn)	-26%
51	COc1cccc(CNS(=O)(=O)c2cc3c(cc2C)n(C)c(=O)c(=O)n3C)c1	-18%
52	Cc1cccc(-c2nc3nc(C)cc(NCc4ccccc4Cl)n3n2)c1	-5%
53	O=c1c2ccc([N+](=O)[O-])cc2nc2sc(Nc3ccc4c(c3)CCC4)nn12	i
54	CCc1nc(-c2c3n(c(=O)n(CC(=O)OC)c2=O)CCCC3)no1	1%
55	CC1(C)SCCN(S(=O)(=O)c2ccc(OCC#CCO)cc2)[C@H]1C(=O)NO	?
56	COc1cccc(-c2nc(SCc3ccc(C)cc3)n3[nH]c(=O)cc3n2)c1	-9%
57	CCn1nc2n(c1=O)CCN(Cc1cc(C)ccc1C)C2=O	-5%
58	Cc1noc([C@@H]2CN(C3CCCCCC3)C[C@H]2CO)n1	2%
59	CC(C)c1cc2c(c(O)c1O)[C@@]13CCCC(C)(C)[C@@H]1[C@H](OC3=O)C2=O	?
60	NC(=O)c1ccc(OCC2NC(=O)C3CCCN3C2=O)cc1 (stereo not drawn)	-10%
61	C[C@@]12C(=O)N(c3ccc(C(=O)Nc4cccc5cccnc45)cc3)C(=O)[C@@H]1[C@@H]1C=C[C@H]2C1	-8%
62	Cn1c(=O)n(C)c2cc(CNCCc3ccccc3)ccc21	-4%
63	CC(C)[C@H](N)C(=O)OCC(CO)OCn1cnc2c(=O)[nH]c(N)nc21 (stereo partly drawn)	-12%
64	O=c1cc(-c2ccc(O)c(-c3c(O)cc(O)c4c(=O)cc(-c5ccc(O)cc5)oc34)c2)oc2cc(O)cc(O)c12	?
65	CSc1ccccc1-c1ncc(C)c(NCc2ccc(-c3cccnc3)cc2)n1	-39%
66	CCc1nnc([C@@H]2CC(F)(F)CN2C(=O)c2occc2C)o1	-1%
67	COC(=O)C1=C(C)N(Cc2cccc([N+](=O)[O-])c2)C(=O)CC1c1ccccc1Cl (stereo not drawn)	0%
68	Cc1nc2ccc(S(=O)(=O)NC(C(=O)NCc3ccc(Cl)cc3)C(C)C)cc2s1 (stereo not drawn)	-13%
69	CC(Nc1ncnc2ccc(-c3ccc4c(c3)OCO4)cc12)c1ccco1 (stereo not drawn)	i
70	Cc1nn2c(c1-c1ccnn1C(C)C)N(Cc1ccc3c(c1)CCO3)CCC2	0%[39.2 µM]
71	CCCS(=O)(=O)c1c(S(=O)(=O)CCC)c2cc(CC)ccn2c1C(=O)c1ccc(OC)cc1	-21%
72	COc1ccc(C(=O)COC(=O)CCCC(=O)Nc2ccc(C(C)=O)cc2)cc1	-23%
73	O=C(CN1C=NS(=O)(=O)c2ccc(C(F)(F)F)cc21)Nc1cccc(C(F)(F)F)c1	-16%
74	O=C(NCC1CCCO1)c1cc(-c2ccccc2F)cc2c1OCCN2Cc1cccnc1 (stereo not drawn)	i
75	CCCCc1nn2c(=O)cc(COC(=O)c3ccc4c(c3)OCO4)nc2s1	-28%
76	CCc1c(C)nc(SCc2nc(-c3ccccc3C)no2)[nH]c1=O	-22%
77	CN(C)C(=O)CN1CCCC(N2CCN(c3cccc(C(F)(F)F)c3)CC2)C1 (stereo not drawn)	?
78	Cc1ccc(-c2cc3ncc4c(n3n2)-c2cc(Cl)ccc2OC4)cc1	-14%
79	Nc1nc(N)nc(-c2cc(Cl)ccc2Cl)n1	?
80	CN1C(CSCC(F)(F)F)Nc2cc(Cl)c(S(N)(=O)=O)cc2S1(=O)=O (stereo not drawn)	10%

Some of the entries above, reformatted.
(72) COc1ccc(C(=O)COC(=O)CCCC(=O)Nc2ccc(C(C)=O)cc2)cc1
  nsP2pro primary: -23%

(76) CCc1c(C)nc(SCc2nc(-c3ccccc3C)no2)[nH]c1=O
  nsP2pro primary: -22%

Structures listed so far containing a nitro group on carbon:
no.	structure	nsP2pro primary
21	O=C(Nc1ncc(Cc2ccc(C(F)(F)F)cc2)s1)c1ccc(-c2ccccc2[N+](=O)[O-])o1	?
25	O=C(Nc1cccc(Cc2ccccc2)n1)c1ccc(-c2cccc([N+](=O)[O-])c2)o1	10µM*
53	O=c1c2ccc([N+](=O)[O-])cc2nc2sc(Nc3ccc4c(c3)CCC4)nn12	i
67	COC(=O)C1=C(C)N(Cc2cccc([N+](=O)[O-])c2)C(=O)CC1c1ccccc1Cl (stereo not drawn)	0%

The listing continues.
no.	structure	nsP2pro primary
81	O=C(CCn1c(=O)c2cccn2c2ccccc21)Nc1ccc(F)cc1	-1%
82	Cc1ccccc1C(=O)Nc1ccc(S(=O)(=O)N2CCC(c3nc4ccccc4s3)CC2)cc1	-21%
83	CC(O)(CC(=O)O)CC(=O)OCc1ccc(O[C@@H]2O[C@H](CO)[C@@H](O)[C@H](O)[C@H]2O)cc1 (stereo partly drawn)	14%[10 µM]
84	Cc1nc(CC(=O)NC(C)c2cnn(-c3ccccc3)c2C)cs1 (stereo not drawn)	i
85	C[C@@]1(C(=O)O)CCC[C@@]2(C)C3=CC[C@H]4C[C@@]3(CC[C@H]12)CC4(O)CO (stereo partly drawn)	-10%
86	COc1ccc(-c2cc(C[C@H]3CNCC[C@H]3CC(=O)N3CCOCC3)no2)cc1	?
87	COC(=O)[C@H]1CCCN1C(=O)[C@@H]1C[C@@H](NS(=O)(=O)c2cccs2)CCN1C(=O)COCC(=O)O	0%
88	COc1cccc2c1OCC(C(=O)N1C[C@@H]3[C@H](C1)[C@H]1CC[C@@H]3O1)C2 (stereo partly drawn)	i
89	O=C(CSc1nnc(-c2ccccc2)c(-c2ccccc2)n1)NC1CCCC1	-26%
90	CCC(=O)N1CCCc2cc(S(=O)(=O)N3CCC(C(=O)Nc4cccc(Cl)c4)CC3)ccc21	-16%
91	CCOC(=O)c1ccc(O)c2ncc(N3CCC(C(=N)N)CC3)cc12	2%
92	CCCCNC(=O)CCn1c(=O)c2cccn2c2ccc(F)cc21	-11%
93	C/C(=C\CC[C@H](CO)[C@@H]1CC[C@]2(C)C3=C(CC[C@@]12C)[C@@]1(C)CCC(=O)C(C)(C)C1CC3)C(=O)O (stereo partly drawn)	-3%[10 µM]
94	COCCCNC(=O)c1cc(-c2cccnc2)nc2ccccc12	-16%
95	C=C1CC23CCC4[C@@](C)(CCC[C@@]4(C)C(=O)O)C2CCC1C3 (stereo partly drawn)	13%
96	CC1CCCN(C(=O)c2coc(COc3cccc(F)c3F)n2)C1 (stereo not drawn)	1%
97	CCCS(=O)(=O)Nc1ccc2n(c1=O)C[C@H]1C[C@@H]2CN(C(=O)Nc2ccc(OC)cc2)C1	19%
98	O=C(CSc1nc(-c2ccc(F)cc2)nc2c1Cc1ccccc1O2)Nc1cccc(C(=O)O)c1	-17%
99	COc1ccc(CNC(=O)c2nc(SCc3ccccc3F)ncc2Cl)cc1	-19%
100	COC(=O)CNC(=O)c1nc(-c2ccc(Cl)nc2)c2ccccn12	-14%
101	CN(C)CCCO[C@@H]1[C@H]2OC(C)(C)O[C@H]2O[C@@H]1C(O)CO (stereo partly drawn)	0%
102	CC1(C(=O)Nc2cccc(Br)c2)Cc2ccccc2C(=O)O1 (stereo not drawn)	0%
103	Cc1oc(-c2ccc(Cl)cc2)nc1CS(=O)CC(=O)NCc1ccc(Cl)cc1 (stereo not drawn)	-23%
104	Cc1ccc2nc(-c3cc(NC(=O)/C=C/c4ccccc4)ccc3Cl)oc2c1	-13%
105	COc1ccc(NC(=O)CSc2nnc(-c3cccc(S(=O)(=O)N4CCCC4)c3)n2-c2ccccc2)cc1	-7%

Taken from the listing (three entries):
no.	structure	nsP2pro primary
102	CC1(C(=O)Nc2cccc(Br)c2)Cc2ccccc2C(=O)O1 (stereo not drawn)	0%
103	Cc1oc(-c2ccc(Cl)cc2)nc1CS(=O)CC(=O)NCc1ccc(Cl)cc1 (stereo not drawn)	-23%
104	Cc1ccc2nc(-c3cc(NC(=O)/C=C/c4ccccc4)ccc3Cl)oc2c1	-13%
